Marburg entry inh: qHTS for inhibitors of binding or entry into cells for Marburg Virus | AID 540276, 2011 | Potency, µM (series often up to 37.8 µM), without a hit: at the top dose activity change, negative = inhibition, actives largely listed as inhibitors | 300,000 tested, 1.8% active | Marburg virus pseudotyped entry inhibition, cell reporter; control for the full effect not named in the record; about a third of the inactives were read at about 46 µM; active = well fitted inhibition curve with a large enough effect; inconclusive = small, poorly fitted or top-dose-only effect, or effect the other way; inactive = flat fitted curve, though single readings scatter; tested in HEK293 cells; about a fifth of its hits are not listed in these tables; note: % is set by controls: 0 for no effect and ±100 for the full control effect; luciferase read-out
SARS PLpro yeast: qHTS of Yeast-based Assay for SARS-CoV PLP; Potency, µM (top dose mostly 32.9 µM), inactives show at the top dose activity, positive = growth rescue; S. cerevisiae expressing SARS-CoV PLpro, growth rescue; control for the full effect not named in the record; 330,000 tested, 0.19% active; note: 0% is about no effect; nearly all actives have a fitted effect of over 55% in size; growth read by luminescence after 48 h
Cruzain inh Det: qHTS Assay for Promiscuous and Specific Inhibitors of Cruzain (with detergent); AID 1478, 2009; 200,000 tested, 0.43% active; Potency, µM, for the others: max response, negative = inhibition, hits mostly inhibitors; purified cruzain, Z-FR-AMC fluorescence, 0.01% Triton; Cruzipain (Trypanosoma cruzi), P25779; active = well fitted curve in the direction sought with a large enough effect; inconclusive = small, poorly fitted or top-dose-only effect, or another doubt; inactive = no such curve, though single readings can be large; an effect the other way counts as inactive or inconclusive;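 note: plate controls were neutral wells for no effect and buffer without enzyme for full effect; nearly all actives have a fitted effect of over 40% in size; top concentration of the series not given in the record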
Target sequence (P25779 123-467 limits assumed): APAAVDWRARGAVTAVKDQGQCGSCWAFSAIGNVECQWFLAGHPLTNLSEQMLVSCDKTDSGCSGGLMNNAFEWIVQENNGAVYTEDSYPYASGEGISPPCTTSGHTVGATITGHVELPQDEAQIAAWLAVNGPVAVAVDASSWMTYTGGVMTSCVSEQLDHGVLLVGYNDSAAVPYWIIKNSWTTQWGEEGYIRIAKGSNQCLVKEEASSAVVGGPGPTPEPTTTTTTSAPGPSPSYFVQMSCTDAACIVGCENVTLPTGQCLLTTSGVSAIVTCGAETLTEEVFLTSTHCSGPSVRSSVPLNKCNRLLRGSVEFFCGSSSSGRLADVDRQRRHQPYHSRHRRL
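Steps: dispense cruzain (1.5 nM final) in acetate buffer pH 5.5 with DTT and 0.01% Triton X-100; pin-transfer compounds; incubate 15 min RT; add Z-FR-AMC (2 uM final); read fluorescence every 30 s, using the 60 s intensity change.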
Cruzain noTriton: qHTS Assay for Promiscuous and Specific Inhibitors of Cruzain (without detergent); purified cruzain, Z-FR-AMC fluorescence, no detergent; 200,000 tested, 2.3% active; Cruzipain (Trypanosoma cruzi), P25779; Potency, µM, without a hit: max response, negative = inhibition, most hits filed as inhibitors; active = well fitted curve in the direction sought with a large enough effect; inconclusive = small, poorly fitted or top-dose-only effect, or another doubt; inactive = no such curve, though single readings can be large; an effect the other way counts as inactive or inconclusive;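 note: plate controls were enzyme without inhibitor for no effect and buffer without enzyme for full effect; nearly all actives have a fitted effect of over 40% in size; top concentration of the series not given in the record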
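Purified cruzain at 1.5 nM, pre-incubated 15 min with compound at room temperature in 100 mM sodium acetate pH 5.5, 5 mM DTT, 0.00005% Triton X-100. Reaction started with 2 uM Z-FR-AMC; AMC fluorescence increase over 60 s gives rate.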
2A StopGo: High Throughput Screening for Foot and Mouth Disease Virus Antivirals; human cells with a luciferase reporter of 2A StopGo recoding; control for the full effect not named in the record; Potency, µM (top dose mostly 57.9 µM), for inactives: at the top dose signal change, negative = less light; 410,000 tested, 1.2% active; active = well fitted falling curve with a large enough effect; inconclusive = small, poorly fitted or top-dose-only effect; inactive = no such curve, though single readings can be large or run the other way; tested in HEK293T cells; note: % is set by controls: 0 for no effect and ±100 for the full control effect; nearly all actives have a fitted effect of over 45% in size; luciferase light after 4 h
NS1 inh: qHTS Assay for Inhibitors of Influenza NS1 Protein Function; Potency, µM (doses to about 46.1 µM), without a hit: at the highest dose activity, positive = more growth; S. cerevisiae slowed by influenza A NS1, growth recovery by OD600; 270,000 tested, 0.4% active; AID 2326, 2010; note: actives are rising curves; nearly all actives have a fitted effect of over 50% in size
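Compounds were scored for reversing the slow growth caused by influenza A NS1 in S. cerevisiae, measured by optical density at 600 nm. Assay medium contained 2% galactose at pH 6.0; NS1-free yeast of the same strain were the positive control.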
RE007 growth inh: qHTS Assay for Inhibitors of the HIV-1 protein Vpr. S. pombe RE007 Vpr strain, BacTiter-Glo ATP luminescence, 24 h; control for the full effect not named in the record. Potency, µM (doses to about 92.2 µM), for inactives: at the top dose activity change, negative = less growth. 360,000 tested, 0.21% active. AID 651644, 2012; active = well fitted falling curve with a large enough effect; inconclusive = small, poorly fitted or top-dose-only effect; inactive = no such curve, though single readings can be large or run the other way;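 note: % is set by controls: 0 for no effect and ±100 for the full control effect; nearly all actives have a fitted effect of over 50% in size; the assay follows cell death caused by Vpr and the record does not say whether a fall means rescue or toxicity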
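Fission yeast RE007 carrying one integrated HIV-1 vpr copy, seeded at OD 0.01 in PMG+AL medium with 23 nL pinned compound. Grown 24 h at 30 degrees; viability read by BacTiter-Glo luminescence after 5 min.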
Lassa entry inh: qHTS for Inhibitors of binding or entry into cells for Lassa Virus; Lassa virus pseudotype entry inhibition, cell reporter; control for the full effect not named in the record; Potency, µM (top dose mostly 37.9 µM), for inactives: at the top dose activity change, negative = inhibition, usual class: inhibitors; 300,000 tested, 1.2% active; AID 540256, 2011; active means well fitted inhibition curve with a large enough effect; inconclusive means small, poorly fitted or top-dose-only effect, or effect the other way; inactive means flat fitted curve, though single readings scatter; tested in HEK293 cells; note: % is set by controls: 0 for no effect and ±100 for the full control effect; nearly all actives have a fitted effect of over 50% in size; luciferase read-out
* = called active by the depositor; ? = inconclusive; . = no result given; & = joins results of further samples; [ ] = dose if it differs, or a comment. Unless noted, calls come from the whole dose curve; as a rule, active means well fitted rising curve with a large enough effect; inconclusive means small, poorly fitted or top-dose-only effect; inactive means no such curve, though single readings can be large or run the other way. Potency is the fitted concentration of half-maximal effect.

SMILES	Marburg entry inh	SARS PLpro yeast	Cruzain inh Det	Cruzain noTriton	2A StopGo	NS1 inh	RE007 growth inh	Lassa entry inh
N#Cc1c(SCC(=O)Nc2ccc(C(F)(F)F)cc2)sc2c(O)cc(=O)[nH]c12	2%	1%	.	.	-2%	?	4%	9%
Cc1ccc(NC(=O)C(Cc2c[nH]c3ccccc23)NC(=O)OC(C)(C)C)c(C)c1 (stereo not given)	?	.	-11%	-8%	10%	.	.	?
O=C(CC(=O)NC1CCCCC1)N/N=C/c1ccccc1[N+](=O)[O-]	11%[46.1 µM]	-1%	.	.	23%	9%	-5%	0%[46.1 µM]
CC(C)(C)NC(=O)CN(C(=O)C(=O)Nc1ccc2c(c1)OCCO2)C(C)(C)C	?	0%	.	.	-4%	1%	12%	-1%
Cc1cc2c(NS(=O)(=O)c3ccc(F)cc3)cccc2nn1	.	-1%	.	.	16%	4%	15%	.
Cc1c(CN2CCN(C)C(CCO)C2)[nH]c2c(Cl)cccc12 (stereo not given)	-19%	-6%	.	.	-12%	-2%	-1%	-1%
O=C(COC(=O)CC(c1ccccc1)c1ccccc1)NCc1ccc(Cl)cc1	?	-2%	-3.5%	5%	35µM*	-10%	-1%	?
C=CCN(Cc1cn(C)nc1-c1cccc(Cl)c1)C1CCS(=O)(=O)C1 (stereo not given)	1%[46.1 µM]	1%	.	.	-10%	0%	2%	-21%[46.1 µM]
Cc1ccccc1C(=O)Nc1cccc(C(=O)N/N=C/c2ccc3c(c2)OCO3)c1	-25%[46.1 µM]	3%	.	.	45%[activator]	9%	11%	?
C=CCSc1nnnn1-c1ccc(OC)cc1	18%	5%	4.8%	2%	15%	4%	-13%	16%
Cc1nc2ccccc2n1CCc1nc2c3ccccc3nc(SCC(=O)Nc3ccc(Br)cc3F)n2n1	.	.	2.6%	-5%	-8%	.	.	14%[46.1 µM]
CCOC(=O)C1CCN(C(=O)c2ccc(OC3CCN(C(=O)CCOC)CC3)cc2)CC1	12%	8%	.	.	30%[activator]	-1%	6%	0%
COC(CNC(=O)C1CC(=O)N(CCc2ccccc2)C1)OC (stereo not given)	?	3%	2.2%	5%	-15%	1%	-9%	15%
CCOC(=O)COc1ccc2cc(C(=O)OCC)c(=O)oc2c1	-3%	-4%	-18%	6%	13%	-7%	-6%	-12%
COc1ccc2cc(C(=O)NCc3ccc4c(c3)CCN4C(=O)c3ccc(F)cc3)[nH]c2c1	.	.	-0.8%	25µM*	10%	.	.	-26%[46.1 µM]
O=C(NCN1CCN(c2ccccn2)CC1)c1cnccn1	14%	2%	-1.8%	-4%	6%	-3%	9%	4%
CC1(C)CC(=O)c2sc(NC(=O)c3ccc4ncsc4c3)nc2C1	-2%	-6%	-11%	2%	38%[activator]	0%	-1%	.
Cc1cc(=O)oc2cc(OCCCC[n+]3ccccc3)ccc12	?	1%	.	.	28%	-1%	-17%	12%[46.1 µM]
CCN(CC)S(=O)(=O)c1ccc(OCC(=O)NCc2ccccc2)cc1	-18%	0%	-0.7%	6%	.	-17%	-8%	?
CCOC(=O)NNC(=O)CCn1c2c(c3ccccc31)CCCC2	.	0%	.	.	-5%	-1%	-3%	.
Cc1ccc2oc(-c3ccc(NC(=O)c4ccc5c(c4)OCO5)cc3)nc2c1	2%	7%	1.8%	?	22%	5%	-2%	7%
CCC(C)n1nnc2c(=O)oc3ccccc3c21 (stereo not given)	5%	-12%	5.6%	1%	4%	-67%	12%	?
COc1ccc(C(=O)c2c(C)oc3ccc(O)cc23)cc1	.	-6%	.	.	-27%	-36%	4%	.
O=C(/C=C/c1ccc(S(=O)(=O)N2CCOCC2)cc1)OCC(=O)c1ccc([N+](=O)[O-])cc1	-1%	-1%	.	.	-17%	6%	-2%	.
Cc1ccc(Nc2nnc(SC3CCOC3=O)s2)cc1 (stereo not given)	?	5%	-4.5%	-6%	11%	8%	-2%	?
CCOc1ccc(N(CC(=O)NC2CCCC(C)C2C)S(=O)(=O)c2c(C)noc2C)cc1 (stereo not given)	-14%&-14%	-8%	0.4%	7%	-21%	-2%	-1%	-12%
O=C(CCN1C(=O)/C(=C\c2cccs2)SC1=S)NC1=NCCS1	?	-11%	-13%	-10%	-14%	13%	-6%	-2%
CCOC(=O)c1cccc(NC(=O)C2CCN(S(=O)(=O)c3cn(C)cn3)CC2)c1	.	.	0.2%	13%	4%	.	.	?
COc1ccc(S(=O)(=O)Nc2nnc(C(C)C)s2)cc1	-5%[46.1 µM]	1%	-0.8%	-11%	22%	-7%	24%	3%
Cc1ccccc1C(=O)NNC(=O)CCCCC(=O)NNC(=O)c1ccccc1C	8%[46.1 µM]	.	.	.	2%	.	22%	0%
CC(C)CN1CCC(=O)N([C@H](COc2ccccc2)Cc2ccccc2)CC1	.	4%	.	.	-21%	-16%	6%	.
Cc1ccc(-c2nc(-c3cc4cccc(OCc5ccccc5F)c4oc3=O)no2)cc1	4%[46.1 µM]	.	-3.2%	-3%	23%	.	.	-1%[46.1 µM]
Nc1nc(SCC(=O)NCCO)nc2sc3c(c12)CCCC3	-3%[46.1 µM]	1%	.	.	15%	.	16%	11%
Cc1ccc(NS(=O)(=O)c2ccc(Br)s2)cc1S(=O)(=O)N1CCOCC1	-23%	1%	.	.	0%	1%	4%	0%
Cc1nc(N)sc1-c1nnc(SCC(=O)Nc2nccs2)n1C	?	-3%	-0.3%	4%	-17%	-7%	-8%	11%
O=C1CSC(c2cn(-c3ccccc3)nc2-c2cccs2)N1CC1CCCO1 (stereo not given)	?	-2%	-3.6%	?	?	-33%	-4%	-20%
CCOc1cc(/C=C2\SC(=N)N(c3nonc3N)C2=O)ccc1OCC(N)=O	24%	1%	-5.8%	-6%	-16%	-1%	-23%	13%
COc1ccccc1CNC(=O)C/C(C)=N/NC(=O)Cc1ccccc1	?	14%	0.8%	2%	17%	8%	-8%	9%
CC1(C)CC2(CC(c3ccccc3F)c3cc(Cl)c(O)cc3O2)NC(=S)N1 (stereo not given)	?	3%	.	.	?	.	-10%	?
CCOc1ccc(CCNC(=O)COC(=O)c2cc(=O)[nH]c3ccccc23)cc1OCC	-4%	12%	.	.	-22%	.	-9%	10%
COc1ccc(OC)c(-n2nnnc2SCC(=O)Nc2ccc(C(=O)N3CCCCC3)cc2)c1	-23%	-1%	-3.0%	22%	.	1%	1%	-17%
COc1ccc(COC(=O)c2ccc(S(=O)(=O)N3CCC(C)CC3)cc2)cc1	0%[46.1 µM]	-6%	.	.	-20%	-9%	5%	-11%
Cc1cc[n+](CC(=O)c2cccs2)cc1	10%	-1%	0.5%	-5%	20%	7%	-12%	2%
CSC1=NCCN1C(=O)C(C)Oc1ccccc1 (stereo not given)	2%	4%	2.8%	-7%	-17%	5%	-13%	.
Cc1ccc(C(=O)CSc2ncn[nH]2)cc1	16%	-10%	5.5%	-3%	43%[activator]	-6%	-14%	?
Cc1ccccc1OCc1nnc(SCc2cc(=O)c3cccc(F)c3[nH]2)n1C	.	.	0.7%	-4%	-4%	.	.	-15%[46.1 µM]
CCc1ccc(-c2nc(CS(=O)CC(=O)NCc3ccco3)c(C)o2)cc1 (stereo not given)	.	-4%	.	.	6%	29%	5%	.
Cc1ccc(C2(c3noc(CN(C)CC4COCCO4)n3)CCCC2)cc1 (stereo not given)	4%[46.1 µM]	0%	.	.	0%	10%	-8%	?
CCCNC(=S)N1CCC(Cc2ccccc2)CC1	.	-4%	.	.	?	-37%	19%	.
CCc1ccccc1NC(=O)CNCC(=O)Nc1ccccc1CC	0%[46.1 µM]	-1%	.	.	24%	2%	-21%	?
CC(c1ccon1)N(C)Cc1cn(C)nc1-c1cccc(Cl)c1 (stereo not given)	-7%[46.1 µM]	0%	.	.	?	-6%	-20%	-1%
CCOC(=O)CNC(=O)CN1C(=O)CCS(=O)(=O)c2ccccc21	3%	16%	-2.0%	4%	10%	7%	11%	-2%
CCCNC(=O)C/C(C)=N/NC(=O)COc1ccc(C)cc1Br	14%	-15%	-4.3%	-3%	9%	-3%	-2%	-14%
Cc1ccc(C2SCC(=O)N2Cc2ccccc2)cc1 (stereo not given)	.	0%	.	.	-27%	-5%	8%	.
Cc1ccc(NC(NC(=O)Cc2ccccc2)C(Cl)(Cl)Cl)cc1 (stereo not given)	-15%	-12%	-7.9%	-1%	?	-1%	.	0%
O=C(Nc1cc(S(=O)(=O)N2CCCC2)ccc1Cl)C1=COCCO1	18%	-1%	6.8%	-2%	26%	-9%	9%	0%
COc1cccc2c(=O)n(CC(=O)N3CCc4ccccc43)ccc12	.	2%	-1.6%	-2%	0%	-5%	-1%	.
CC(C)(C)C(=O)CC1(O)C(=O)N(Cc2ccccc2)c2ccccc21 (stereo not given)	-2%	2%	4.0%	7%	6%	23%	-1%	0%
Cc1ccc(CNC(=O)Cc2ccc(NC(=O)N3CCSc4ncccc43)cc2)cc1	.	.	-11%	-10%	-7%	.	.	1%[46.1 µM]
CCOC(=O)c1ccc(OC)c(OC)c1Cl	.	0%	.	.	0%	-8%	-30%	.

The results go on.
SMILES	Marburg entry inh	SARS PLpro yeast	Cruzain inh Det	Cruzain noTriton	2A StopGo	NS1 inh	RE007 growth inh	Lassa entry inh
COc1ccc(C)cc1NC(=O)C1CCN(S(=O)(=O)c2ccc3c(c2)NC(=O)CO3)CC1	.	4%	.	.	-24%	2%	-6%	.
Cc1ccc2nc(-c3ccccn3)[nH]c2c1	?	-16%	.	.	-39%	-38%	?	6.3µM*
COc1ccc(N(CC(=O)NCCc2ccccc2)C(=O)c2csnn2)cc1	6%[46.1 µM]	7%	.	.	1%	3%	-14%	7%
COc1cc(/C=C2/CC(C)OC2=O)c([N+](=O)[O-])cc1OC (stereo not given)	-10%	4%	.	.	9%	14%	0%	-3%
O=C(CN1C(=O)C2C3C=CC(C3)C2C1=O)Nc1ccc2c(c1)OCCO2 (stereo not given)	?	-7%	-3.4%	7%	62%[activator]	6%	11%	?

Compounds were not picked by outcome; about 4.7% have a hit in one of these screens.
